From PubChem BioAssay
Tgondii IFNg = T. gondii growth inhibition under IFN-gamma | activity change, negative = inhibition, %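 (about 20 µM by stock and volumes)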 | AID 1259416 | hit rate 3.8% among 69,000 | Toxoplasma gondii growth in IFN-gamma-treated host cells; stronger effect = lower value; reference of the scale not given here;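 active = below -70%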;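 also: host cells are HeLa cells infected with Toxoplasma gondii; parasite growth read as luciferase light; one replicate is shown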
The depositor's hits bear a star; i = inactive; & = joins results of further samples; ! = not active in a repeat. A portion of the library; the hit share may differ from the screen's.

| molecule | Tgondii IFNg |
| --- | --- |
| COc1ccc2c(c1)C(NC(=O)CN1CCCN(C)CC1)CC(C)(C)O2 (stereo unspecified) | -1 |
| CCOc1ccccc1C(=O)NCCc1sc(-c2ccc(Cl)cc2)nc1C | -106* |
| O=S1(=O)CCC(Cn2cc(-c3ccnc4ccccc34)nn2)C1 (stereo unspecified) | -4 |
| CCCN1CCN(C(=O)C2=C(C)C(=O)OC23CCN(S(=O)(=O)CC)CC3)CC1 | 41 |
| COCC(=O)N1CC(=O)N2[C@H](C1)[C@H](c1ccc(C#CC3CC3)cc1)[C@@H]2CO | 11 |
| CCC(c1ccccn1)N(C)CC1CCC(N)CC1 (stereo unspecified) | 1 |
| O=C(NCCc1cnc[nH]1)c1ccc(NC(=O)C2CCC2)cc1 | 242 |
| O=C(Cn1cncn1)N1CCC(c2cc(-c3ccccc3Cl)n[nH]2)CC1 | 0 |
| O=C(O)c1ccc(S(=O)(=O)Nc2ccc(S(=O)(=O)Nc3cncs3)cc2)cc1 | 28 |
| CCN(Cc1cccc(C(=O)Nc2c(C)cccc2C)c1)[C@H]1COC[C@@H]1O | 4 |
| Cc1cc2oc(C(=O)N3CCC(O)(c4ccccc4C)CC3)cc(=O)c2cc1C | 24 |
| CN(C)Cc1cnc2n1CCN(Cc1cccs1)CC2 | 18 |
| CC(C)(C)c1csc(CNc2nc(CCN)nc3ccccc23)n1 | -4 |
| Cc1ccc(C(=O)Nc2ccc(NC(=O)C(C)n3ccnc3C)cc2)o1 (stereo unspecified) | 17 |
| CCOC(=O)c1ccccc1NC(=O)NCC(c1cccnc1)c1c[nH]c2ccccc12 (stereo unspecified) | -1 |
| C=CCO[C@H]1CN(S(=O)(=O)c2cccs2)[C@H]2COC[C@@H]12 | 2 |
| O=C(NCCc1csc(-c2ccc(F)cc2)n1)c1ccco1 | -31 |
| COCCNC(=O)[C@@H]1[C@@H](CO)[C@@H]2Cn3c(ccc(-c4ccc(F)cc4)c3=O)[C@H]1N2C(=O)NC(C)C | 4 |
| CN(C)Cc1cn(CC[C@@H]2CC[C@H](NC(=O)Cc3cccnc3)[C@@H](CO)O2)nn1 | -5 |
| O=C(Nc1ccc2c(c1)OCCO2)c1c(O)c2cccnc2n(-c2ccccc2)c1=O | 94 |
| Cn1cc(C2c3nc[nH]c3CCN2Cc2cccc3cccnc23)cn1 (stereo unspecified) | 12 |
| C[C@H](CO)N1C[C@H](C)[C@H](CN(C)Cc2ccc(C(F)(F)F)cc2)Oc2c(NC(=O)NC3CCCCC3)cccc2C1=O | -7 |
| COCCNC(=O)[C@@H]1C[C@H]2CCN(Cc3csc(C)n3)C[C@H]2O1 | 15 |
| Cc1cc(=O)c(C(=O)N[C@@H](C(=O)N[C@@H]2C(=O)N3C(C(=O)O)=C(CSc4nnnn4C)CS[C@H]23)c2ccc(O)cc2)c[nH]1 | 19 |
| Cc1cnc(C(=O)N2CC[C@H]3CN(CCc4ccccc4)S(=O)(=O)[C@@H]3CC2)cn1 | -35 |
| COc1ccc2c3c([nH]c2c1)[C@@H](CO)N(C(=O)c1ccc(F)cc1)CC31CCN(S(=O)(=O)c2cccs2)CC1 | -49 |
| CN(C)S(=O)(=O)c1ccc2c(c1)cc(C(=O)NCc1ccccc1Cl)n2Cc1ccncc1 | -95* |
| CSCCNC(=O)Nc1ccc(Cl)cc1 | 34 |
| N#Cc1cccc(CN2C[C@H](N3CCOCC3)C3OCCCC32)c1 (stereo partly specified) | 3 |
| COc1ncccc1CN1CCC2(CC1)CC(COCC1CC1)N(C)C2 (stereo unspecified) | -16 |
| COc1ccc(-c2cc(C(=O)N3CCN(S(=O)(=O)N4CCCC4)CC3)[nH]n2)cc1 | 5 |
| C[C@@H]1CCCCO[C@@H](CN(C)S(=O)(=O)c2ccc(F)cc2)[C@H](C)CN([C@@H](C)CO)C(=O)c2cc(N(C)C)ccc2O1 | 370 |
| N#Cc1c(N2C(=O)C3C4c5ccccc5C(c5ccccc54)C3C2=O)sc2c1CCC2 (stereo unspecified) | -79* |
| CC(C)CC#Cc1ccc([C@H]2[C@@H](CO)N3C(=O)CN(C(=O)c4cccc(F)c4)C[C@@H]23)cc1 | -31 |
| CN(C)Cc1cn(CC[C@@H]2CC[C@@H](NC(=O)Cc3cccnc3)[C@H](CO)O2)nn1 | 0 |
| CSc1ccc(C(=O)C2CCCN(C(=O)CCc3n[nH]c(C)n3)C2)cc1 (stereo unspecified) | -3 |
| O=c1ccc2c(OCCCCOc3ccccc3)c3ccoc3cc2o1 | 2 |
| S=C(NCC1CCCO1)N1CCN(Cc2ccc3c(c2)OCO3)CC1 (stereo unspecified) | -14 |
| Cn1c(=O)n(CC(=O)N2CCCc3ccccc32)c2cccnc21 | 12 |
| C[C@@H]1CCCCO[C@H](CN(C)S(=O)(=O)c2ccccc2)[C@@H](C)CN([C@H](C)CO)C(=O)c2cc(NC(=O)Nc3ccc4c(c3)OCO4)ccc2O1 | 446 |
| CN(CCc1ccccn1)c1ncccc1CNC(=O)c1cnn2cccnc12 | 1 |
| C[C@H](CO)N1C[C@H](C)[C@H](CN(C)C(=O)Nc2ccc(F)cc2)Oc2c(cccc2N(C)C)C1=O | -27 |
| C[C@@H]1CCCCO[C@H](CN(C)Cc2ccncc2)[C@H](C)CN([C@H](C)CO)C(=O)c2cc(NC(=O)Cc3ccccc3)ccc2O1 | 100 |
| CCOC(=O)c1ccc(/C=C/c2ccccn2)cc1 | 198 |
| CCC/C=C/c1ccc(C(=O)NCC)s1 | 24 |
| O=C(c1ccc(F)cc1)N1CCC2(CC1)CC(Oc1cccnc1)C2 | -15 |
| Cc1nccn1-c1ncnc2scc(-c3ccccc3)c12 | 13 |
| CN1CCCN(CC2(O)CCNC2)CC1 (stereo unspecified) | -94* |

Grouped by structure, those above with a furan ring, fused or not (three)
| molecule | Tgondii IFNg |
| --- | --- |
| Cc1ccc(C(=O)Nc2ccc(NC(=O)C(C)n3ccnc3C)cc2)o1 (stereo unspecified) | 17 |
| O=C(NCCc1csc(-c2ccc(F)cc2)n1)c1ccco1 | -31 |
| O=c1ccc2c(OCCCCOc3ccccc3)c3ccoc3cc2o1 | 2 |

Continuation:
| molecule | Tgondii IFNg |
| --- | --- |
| CC(=O)N1[C@H](CO)[C@@H](c2ccccc2)[C@H]1CNC(=O)CN1CCOCC1 | 12 |
| CCc1ccc(S(=O)(=O)N2CCC3(CC(C(=O)NC)=NO3)C2)cc1 (stereo unspecified) | -3 |
| CNC[C@H]1OCc2ccccc2-c2ccccc2C(=O)N([C@@H](C)CO)C[C@H]1C | 67 |
| CC(C(=O)N(C)C)N(C)Cc1cnc(-c2cccc3ccccc23)nc1 (stereo unspecified) | -40 |
| O=C(C1CCCN(C2CCCCC2)C1)N1CCN(C2CCOCC2)CC1 (stereo unspecified) | -1 |
| O=C(Nc1ccccc1O)C1=CC2(CCNCC2)Oc2ccccc21 | 3 |
| Cn1ccc(C2c3cc4c(cc3CCN2S(=O)(=O)c2ccccc2F)OCO4)n1 (stereo unspecified) | 50 |
| O=C(NC12CC3CC(CC(C3)C1)C2)N1CCCC(c2ccccc2)C1 (stereo unspecified) | 6 |
| O=C(Nc1ccccc1C(=O)NCc1cccnc1)c1cc2ccccc2o1 | -35 |
| C(/C=C/N1CCCC1)=C\c1cc(-c2ccccc2)c(-c2ccccc2)cn1 | 5 |
| CCc1ccc(NC(=O)N2CCC(c3nc(C(=O)N4CCOCC4)c(C)o3)CC2)cc1 | -28 |
| COc1ccc(C#Cc2ccc([C@H]3[C@H]4CN(C)CCCCN4[C@H]3CO)cc2)cc1 | 0 |
| CCOc1ncccc1-c1nc2ccccc2s1 | 75 |
| CCOC(=O)c1cnc2ccc(C(=O)OC)cc2c1Nc1ccc2c(c1)OCCO2 | -72*! |
| Cc1ccc(CN2CCC3(CCNCC3)C2)c(Cl)c1Cl | -39 |
| C[C@@H]1CN([C@@H](C)CO)C(=O)c2cc(N(C)C)ccc2O[C@@H](C)CCCCO[C@H]1CN(C)S(=O)(=O)c1cn(C)cn1 | 153 |
| O=C(CN(C(=O)CNC(=O)c1cccs1)c1ccc2c(c1)OCCO2)NC1CCCC1 | -4 |
| Cc1cc(C)n(CC(O)CN(Cc2ccco2)Cc2cccc3ncccc23)n1 (stereo unspecified) | 8 |
| C[C@@H]1CN([C@H](C)CO)C(=O)Cc2cc(NC(=O)C3CCCCC3)ccc2O[C@@H]1CN(C)Cc1ccc(Cl)c(Cl)c1 | -43 |
| CC(=O)NCC(=O)N1CCC2(CC1)NC(=O)CC2c1ccccc1 (stereo unspecified) | 2 |
| O=C(c1nc2c(s1)CCCN2C(=O)c1ccccc1)N1CCCC1 | -8 |
| COc1ccc(S(=O)(=O)NCCc2sc(-c3ccc(F)cc3)nc2C)cc1C | 58 |
| COc1ccc(-c2ccccc2)cc1-n1ccnc1-c1cnc[nH]1 | -82* |
| COCCN1C(=O)CCC12CCCN(C(=O)c1ccc[nH]1)CC2 (stereo unspecified) | -1 |
| CN1CC2(CCN(C(=O)C3CCC(=O)N3)CC2)COc2ccccc2S1(=O)=O (stereo unspecified) | 9 |
| CCCc1nc(CN(CC)C(=O)C2=CC(=O)CC(C)(C)O2)no1 | 51 |
| C/C=C/c1ccc(C2[C@H]3CNC[C@@H]2N3S(=O)(=O)c2ccccc2C)cc1 (stereo partly specified) | -38&-36 |
| Cc1nccc(-c2cc(-c3ccc(Cl)cc3Cl)no2)n1 | 264 |
| Cn1c(=O)[nH]c(=O)c2c1ncn2CCN1CCOCC1 | -8 |
| CCOc1ccc(CC(=O)N[C@@H](CC)Cn2nc3c(cc2=O)CCCCC3)cc1OCC | -17 |
| CN1C(=O)c2cc(NC(=O)c3cnccn3)ccc2OC[C@H]2O[C@@H](CC(=O)N[C@H]3CCN(Cc4ccccc4)C3)CC[C@H]21 | -25 |
| Cc1cc(-n2nc(C)cc2C)nc(N2CCCN(C(=O)c3cccs3)CC2)n1 | -56 |
| O=C(COc1ccccc1)NCCc1csc(-c2ccc(Cl)cc2)n1 | 8 |
| CC12CCC(C(=O)NCc3ccccn3)(OC1=O)C2(C)C (stereo unspecified) | 0 |
| CCCn1cnc(NC(=O)Cn2c(C(F)(F)F)nc3ccc(C)cc32)n1 | 0 |
| CCN(CC)c1ncnc2c1cnn2CC(=O)NC(C)C | 215 |
| CCN1CCCCC1CNC(=O)Cn1nc(C)c(C)c1C (stereo unspecified) | 5 |
| CCc1nc(OCC(=O)Nc2ccc(Cl)cc2C(F)(F)F)c2ccccc2n1 | -50 |
| CCOC(=O)c1csc(-c2csc(C)n2)n1 | 31 |
| CCCCSc1nc2sc3c(c2c(=O)n1-c1ccc(C)cc1)CCC3 | -19 |
| Cc1nc(-c2ccc(Cl)cc2)sc1CCNC(=O)C(=O)Nc1cccc(F)c1 | -12 |
| COC(=O)c1ccc(C)cc1NC(=O)Nc1ccc(-c2nc(-c3ccc(C)cc3C)co2)cc1 | -32 |
| O=C1NCC2(CCN(C(=O)CN3CSCC3=O)CC2)Oc2ccccc21 | 66 |
| CCC(NC(=O)C(C)C)C1=CCCN(Cc2ncccn2)C1 (stereo unspecified) | 0 |
| CS(=O)(=O)C1CS(=O)(=O)CC1O (stereo unspecified) | -22 |
| COCCN1CCC2(CC1)CC1(CCN(C(=O)CC(C)C)CC1)N(C)C2=O | -13 |
| O=C(C1CCCC1)N1CC2(C1)[C@@H](c1ccccc1)[C@H](CO)N2Cc1ccc(Cl)cc1 | -5 |
| COc1ccc(-c2cc(C)ccc2OCC(N)=O)cc1Cl | 10 |

Continued (six carried over from the part before).
| molecule | Tgondii IFNg |
| --- | --- |
| O=C1NCC2(CCN(C(=O)CN3CSCC3=O)CC2)Oc2ccccc21 | 66 |
| CCC(NC(=O)C(C)C)C1=CCCN(Cc2ncccn2)C1 (stereo unspecified) | 0 |
| CS(=O)(=O)C1CS(=O)(=O)CC1O (stereo unspecified) | -22 |
| COCCN1CCC2(CC1)CC1(CCN(C(=O)CC(C)C)CC1)N(C)C2=O | -13 |
| O=C(C1CCCC1)N1CC2(C1)[C@@H](c1ccccc1)[C@H](CO)N2Cc1ccc(Cl)cc1 | -5 |
| COc1ccc(-c2cc(C)ccc2OCC(N)=O)cc1Cl | 10 |
| COC(=O)c1sc(-c2ccc(C(C)(C)C)cc2)cc1NS(=O)(=O)c1cn(C)cn1 | -12 |
| COc1cc2c(cc1OC)CN(CC(=O)Nc1nc(-c3ccccn3)cs1)CC2 | -5 |
| COc1ccc(CN2C(=O)CC(C(N)=O)SC2=Nc2ccc(OC)cc2)cc1 (stereo unspecified) | -40 |
| O=C(c1cccs1)N1CCc2c([nH]c3ccccc23)C1c1ccc(F)cc1 (stereo unspecified) | i |
| CC(CN1CCc2ccccc2C1)NC(=O)C1=NNC(=O)CC1 (stereo unspecified) | 8 |
| CCNC(=O)C[C@@H]1CC[C@H]2[C@@H](COC[C@H](O)CN2C(=O)c2ccccn2)O1 | 22 |
| CCCCCCCCCSc1n[nH]c(N)n1 | -26 |
| CS(=O)(=O)CC(=O)NC1CCCCC1 | 40 |
| Cc1oc(-c2cccc(Cl)c2)nc1CN1CCCC(C(=O)NC2CCCCCC2)C1 (stereo unspecified) | -56 |
| O=C(CSc1nnc(-c2ccccc2)c(-c2ccccc2)n1)NCc1ccco1 | -24 |
| Cc1cc(Oc2ccc(N(C)C)cc2)cc(C2CCCN(C(=O)c3c(C)noc3C)C2)n1 (stereo unspecified) | -9 |
| Cc1cccc(CN2CCC(N(C)C)CC2C(=O)O)n1 (stereo unspecified) | 3 |
| Fc1ccc(-c2cncc(CN3CCN(c4cccc5c4OCCO5)CC3)c2)cc1 | -16 |
| Cc1ccsc1[C@@H]1CCN(Cc2cccn2-c2cccnc2)C[C@H]1O | 9 |
| Nc1nc(NCc2ccccc2)nc(-c2cccc(O)c2)n1 | -11 |
| CSC1=NCCCN1S(=O)(=O)c1cc(Cl)c(Cl)cc1Cl | -37 |
| Cc1cc(C(=O)N2CC[C@H]3O[C@@H](c4ccncn4)C[C@@H]3C2)no1 | -7 |
| Cc1onc(-c2ccccc2)c1C(=O)N1CCc2c(c(C(=O)N(C)C)nn2Cc2ccccc2)C1 | -10 |
| COCC(=O)N1CCCC1c1nnn2cc(Nc3ccccc3)ccc12 (stereo unspecified) | -7 |
